Bioassay records (PubChem BioAssay)
TRPC4 inh – blocks the mouse TRPC4 cation channel; Q9QUQ5; HEK293 TRPC4beta/mu-opioid, DAMGO-evoked Fluo4 calcium flux; active compounds read low; B-score at 10 µM; actives 0.39% (n = 300,000); AID 2247;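 active means B-score over 3 SD under the library average, no early fluorescence shift, positive overall ratio signal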
Target sequence (Q9QUQ5 whole entry, looked up): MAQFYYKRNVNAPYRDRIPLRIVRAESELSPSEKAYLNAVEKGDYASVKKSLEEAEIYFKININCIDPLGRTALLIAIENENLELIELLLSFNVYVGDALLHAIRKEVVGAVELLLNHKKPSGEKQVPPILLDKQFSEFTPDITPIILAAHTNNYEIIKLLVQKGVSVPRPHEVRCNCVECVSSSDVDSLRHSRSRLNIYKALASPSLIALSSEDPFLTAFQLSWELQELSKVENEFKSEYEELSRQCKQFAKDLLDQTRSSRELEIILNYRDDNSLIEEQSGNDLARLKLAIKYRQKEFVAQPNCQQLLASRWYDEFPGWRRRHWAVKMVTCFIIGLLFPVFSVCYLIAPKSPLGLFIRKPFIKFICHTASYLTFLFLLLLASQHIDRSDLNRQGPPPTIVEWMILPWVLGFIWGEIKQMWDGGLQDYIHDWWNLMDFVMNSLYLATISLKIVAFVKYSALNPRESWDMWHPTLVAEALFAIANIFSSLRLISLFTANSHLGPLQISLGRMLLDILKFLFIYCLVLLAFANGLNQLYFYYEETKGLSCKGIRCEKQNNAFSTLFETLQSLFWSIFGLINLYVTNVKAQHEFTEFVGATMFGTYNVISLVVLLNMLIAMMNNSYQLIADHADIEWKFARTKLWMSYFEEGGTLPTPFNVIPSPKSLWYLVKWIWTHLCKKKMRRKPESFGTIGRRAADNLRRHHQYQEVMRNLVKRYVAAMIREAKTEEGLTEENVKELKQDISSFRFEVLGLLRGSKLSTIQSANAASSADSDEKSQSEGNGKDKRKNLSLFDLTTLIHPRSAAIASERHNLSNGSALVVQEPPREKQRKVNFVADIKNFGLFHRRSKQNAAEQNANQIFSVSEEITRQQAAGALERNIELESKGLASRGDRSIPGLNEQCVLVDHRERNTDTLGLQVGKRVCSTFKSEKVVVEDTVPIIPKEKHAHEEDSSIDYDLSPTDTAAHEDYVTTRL
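System: stable TRPC4beta/mu-opioid receptor HEK293 cells; Dosing: single-point compound dosing; Measured by: Fluo4 Ca2+ flux fluorescence; Read-out basis: per-well B score of integrated baseline-normalized Fluo4 ratio.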
TRPC6 inh – mouse TRPC6 channel inhibition. Q61143. actives 1.1% (n = 310,000). HEK293-TRPC6, membrane potential dye, ACh-evoked depolarization; active compounds read low. B-score at 10 µM;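 active means B-score under library mean minus 3 SD, initial fluorescence not abnormally high, positive integrated signal ratio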;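 further: B-score derived from integrated fluorescence ratio over the kinetic read; more negative B-score means stronger inhibition of depolarization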
TRPC6 act – activates the mouse TRPC6 cation channel; B-score at 10 µM; Q61143; actives 0.13% (n = 310,000); HEK293-TRPC6 membrane potential dye fluorescence; active compounds read high;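 active means B-score of the integrated fluorescence ratio above library mean plus 3 SD, and starting fluorescence ratio within library mean plus 5 SD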;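 further: higher score means more depolarization so channel activation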
TRPC4 PAM – allosteric potentiators of mouse TRPC4 channel | actives 0.42% (n = 310,000) | B-score at 10 µM | HEK293 TRPC4beta/mu-opioid, DAMGO EC20, Fluo-4 Ca2+ flux; active compounds read high;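 active means B-score of calcium response area above 5 SD of library B-scores, with initial fluorescence ratio within 5 SD of library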;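 further: B-score of integrated fluorescence ratio over time as area under calcium response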
MrgX1 antagonist – blocks BAM8-22 activation of human MrgX1 receptor | MRGX1-HEK293 calcium flux, Fluo-4, BAM8-22 antagonism; active compounds read low | B-score at 10 µM | actives 1.3% (n = 310,000) | AID 588676 | Q96LB2;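 active means calcium-response B-score plate-corrected more than 3 library SD below zero, starting fluorescence within 5 deviations, no agonist response on first addition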;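 further: peak minus trough fluorescence over baseline after final BAM8-22 challenge near maximal dose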
TRPC4 act – TRPC4 (mouse) channel activation | actives 0.49% (n = 310,000) | B-score at 10 µM | HEK293 TRPC4beta/mu-opioid, Fluo4 calcium fluorescence; active compounds read high;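 active means B-score above 5 SD of library B-scores, and initial fluorescence ratio not above library mean plus 5 SD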;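 further: positive B-score marks a calcium rise read as TRPC4 activation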
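Assay system: HEK293 stable line with TRPC4beta plus mu-opioid receptor; schedule: 45 min room-temperature Fluo4 loading, 110 s read; technique: kinetic Fluo4 calcium fluorescence; evaluation: integrated baseline-normalised fluorescence ratio, converted to per-well B score; controls: buffer (low) and maximal DAMGO (high)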
The depositor's hits bear a star; i = inactive; nt = not tested or not shown. These rows are one share of the data. The share of hits here may be higher or lower than overall.

Values run as follows: TRPC4 inh	TRPC6 inh	TRPC6 act	TRPC4 PAM	MrgX1 antagonist	TRPC4 act
#1 COc1cccc2c1C(=O)c1c(O)c3c(c(O)c1C2=O)C[C@@](O)(C(=O)CO)C[C@@H]3O[C@H]1C[C@H](N)[C@@H](O)[C@H](C)O1
 : i	i	i	i	i	i
#2 COC(=O)Nc1sc(C)nc1-c1ccccc1
 : i	i	i	i	i	i
#3 Cc1nc2ccccc2n1S(=O)(=O)c1ccc(F)cc1
 : i	i	i	i	i	i
#4 Clc1ccc(CNc2ccc3nnc(-c4ccccc4)n3n2)cc1
 : i	i	i	i	i	i
#5 CO/N=C(\C(=O)N[C@@H]1C(=O)N2C(C(=O)O)=C(COC(C)=O)CS[C@H]12)c1csc(N)n1 (stereo in doubt)
 : i	i	i	i	i	i
#6 CN(C)c1ccc(N=Nc2cccc3ccoc23)cc1
 : i	-5.75*	i	i	i	i
#7 CN(C)Cc1ccccc1Sc1cccc2ccccc12
 : i	i	i	i	i	i
#8 O=c1[nH]c(=O)n([C@H]2C[C@H](O)[C@@H](CO)O2)cc1F
 : i	i	i	i	i	i
#9 CC(C)NCC(O)COc1cccc2[nH]ccc12 (configuration not stated)
 : nt	nt	nt	nt	i	nt
#10 COc1ccc(/C(N)=N/OC(=O)CSc2ccccc2)cc1
 : i	i	i	i	i	i
#11 CC(C)(C)n1nc(-c2ccc(Cl)cc2)c2c(N)ncnc21
 : i	i	i	i	i	i
#12 N[C@@H](Cc1cc(I)c(Oc2ccc(O)c(I)c2)c(I)c1)C(=O)O
 : i	i	i	i	i	i
#13 CCOC(=O)C1=C(C)NC(C)=C(C(=O)OC)C1c1cccc(Cl)c1Cl (configuration not stated)
 : i	i	i	i	i	i
#14 C[C@H]1C[C@H]2[C@@H]3CCC4=CC(=O)C=C[C@]4(C)[C@@]3(F)[C@@H](O)C[C@]2(C)[C@@]1(O)C(=O)CO
 : i	i	i	i	i	i
#15 CC(C(=O)O)c1cccc(C(=O)c2ccccc2)c1 (configuration not stated)
 : i	i	i	i	i	i
#16 O=C(O)COCCN1CCN(C(c2ccccc2)c2ccc(Cl)cc2)CC1 (configuration not stated)
 : i	i	i	i	i	i
#17 O=C(NC(CO)C(O)c1ccc([N+](=O)[O-])cc1)C(Cl)Cl (configuration not stated)
 : i	i	i	i	i	i
#18 O=C(CSc1ncnc2ccccc12)NCc1ccc2c(c1)OCO2
 : i	i	i	i	i	i
#19 Nc1n[nH]c2ccccc12
 : i	i	i	i	i	i
#20 Cn1nc(C(C)(C)C)cc1NC(=O)Nc1ccc(Cl)cc1
 : i	i	i	i	i	i
#21 Cc1nc(=O)c(-c2ccccc2)c(C)n1-c1ccc(O)c(C(=O)O)c1
 : i	i	i	i	i	i
#22 CN(C)c1ccc(N=Nc2ccccc2C(=O)OCC(=O)N2CCCCCC2)cc1
 : i	i	i	i	i	i
#23 Cc1nnc(SCC2=C(C(=O)O)N3C(=O)[C@@H](NC(=O)Cn4cnnn4)[C@H]3SC2)s1
 : i	i	i	i	i	i
#24 Cn1ncc(Br)c1C(=O)O
 : i	i	i	i	i	i
#25 O=C1Nc2ccccc2Nc2ccccc21
 : i	i	i	i	i	i
#26 O=c1c(O)c(-c2ccc(O)c(O)c2)oc2cc(O)cc(O)c12
 : i	i	i	i	i	i
#27 Cc1nc(COc2ccccc2Cl)sc1-c1ccnc(N)n1
 : i	i	i	i	i	i
#28 O=S(=O)(c1ccc2nc(SCc3cccc(Cl)c3)[nH]c2c1)N1CCOCC1
 : i	i	i	i	i	i
#29 O=C(COc1ccc(Cl)cc1Cl)Nc1noc2ccccc12
 : i	i	i	i	i	i
#30 COc1ccc(C2NC3=C(CCC3)C3(C#N)C(OC)(OC)N=C(N)C23C#N)cc1 (configuration not stated)
 : i	i	i	i	i	i
#31 O=C(O)Cn1nc(C(F)(F)F)c2c1CCCCC2
 : i	i	i	i	i	i
#32 Nc1ccc(S(=O)(=O)Nc2ncccn2)cc1
 : i	i	i	i	i	i
#33 Cc1ccc2c(CC(=O)N3CCN(S(=O)(=O)c4ccc5c(c4)OCCO5)CC3)coc2c1
 : i	i	i	i	i	i
#34 CCNC(=O)C1CC(=O)N(CC)C(=Nc2cc(Cl)c(O)c(Cl)c2)S1 (configuration not stated)
 : i	i	i	i	i	i
#35 Cc1sc2ncnc(SCC(=O)N3CCN(C(=O)c4ccco4)CC3)c2c1C
 : i	i	i	i	i	i
#36 C#C[C@]1(O)CCC2C3CCC4=Cc5oncc5CC4(C)C3CCC21C (some centres not stated)
 : i	i	i	i	i	i
#37 O=C(CCCN1CCC(O)(c2ccc(Cl)cc2)CC1)c1ccc(F)cc1
 : i	i	i	i	i	i
#38 COc1cc(S(=O)(=O)n2c(C)nc3ccccc32)ccc1F
 : i	i	i	i	i	i

14 compounds out of the list, arranged by count of non-hydrogen atoms, ascending.
Values run as follows: TRPC4 inh	TRPC6 inh	TRPC6 act	TRPC4 PAM	MrgX1 antagonist	TRPC4 act
#24 Cn1ncc(Br)c1C(=O)O
 : i	i	i	i	i	i
#25 O=C1Nc2ccccc2Nc2ccccc21
 : i	i	i	i	i	i
#32 Nc1ccc(S(=O)(=O)Nc2ncccn2)cc1
 : i	i	i	i	i	i
#31 O=C(O)Cn1nc(C(F)(F)F)c2c1CCCCC2
 : i	i	i	i	i	i
#20 Cn1nc(C(C)(C)C)cc1NC(=O)Nc1ccc(Cl)cc1
 : i	i	i	i	i	i
#29 O=C(COc1ccc(Cl)cc1Cl)Nc1noc2ccccc12
 : i	i	i	i	i	i
#34 CCNC(=O)C1CC(=O)N(CC)C(=Nc2cc(Cl)c(O)c(Cl)c2)S1 (configuration not stated)
 : i	i	i	i	i	i
#21 Cc1nc(=O)c(-c2ccccc2)c(C)n1-c1ccc(O)c(C(=O)O)c1
 : i	i	i	i	i	i
#37 O=C(CCCN1CCC(O)(c2ccc(Cl)cc2)CC1)c1ccc(F)cc1
 : i	i	i	i	i	i
#28 O=S(=O)(c1ccc2nc(SCc3cccc(Cl)c3)[nH]c2c1)N1CCOCC1
 : i	i	i	i	i	i
#35 Cc1sc2ncnc(SCC(=O)N3CCN(C(=O)c4ccco4)CC3)c2c1C
 : i	i	i	i	i	i
#23 Cc1nnc(SCC2=C(C(=O)O)N3C(=O)[C@@H](NC(=O)Cn4cnnn4)[C@H]3SC2)s1
 : i	i	i	i	i	i
#22 CN(C)c1ccc(N=Nc2ccccc2C(=O)OCC(=O)N2CCCCCC2)cc1
 : i	i	i	i	i	i
#33 Cc1ccc2c(CC(=O)N3CCN(S(=O)(=O)c4ccc5c(c4)OCCO5)CC3)coc2c1
 : i	i	i	i	i	i
